VDR inhibitor: inhibitors of human vitamin D receptor. VDR-SRC2-3 peptide fluorescence polarization, 2 h. Potency, µM, without a hit: max response, negative = inhibition, usual class: inhibitors. hit rate 0.93% among 400,000; active means well fitted inhibition curve with a large enough effect; inconclusive means small, poorly fitted or top-dose-only effect, or another doubt; inactive means no such curve, though single readings can be large or run the other way; further: series mostly up to about 120 µM
Target sequence (P11473 whole entry, looked up): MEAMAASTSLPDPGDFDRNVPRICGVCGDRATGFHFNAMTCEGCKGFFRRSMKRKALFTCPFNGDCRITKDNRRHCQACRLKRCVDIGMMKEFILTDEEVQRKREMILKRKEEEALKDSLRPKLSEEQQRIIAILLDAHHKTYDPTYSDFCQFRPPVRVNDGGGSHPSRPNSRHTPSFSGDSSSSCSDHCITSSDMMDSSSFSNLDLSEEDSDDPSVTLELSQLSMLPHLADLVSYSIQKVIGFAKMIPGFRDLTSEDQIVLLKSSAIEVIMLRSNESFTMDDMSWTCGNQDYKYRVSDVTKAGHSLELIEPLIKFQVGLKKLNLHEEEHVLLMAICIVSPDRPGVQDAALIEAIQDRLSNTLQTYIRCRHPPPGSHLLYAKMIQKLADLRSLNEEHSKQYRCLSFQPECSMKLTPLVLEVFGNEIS
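Fluorescence polarization assay of small-molecule disruption of VDR binding to coregulator peptide SRC2-3. Compounds and controls pin-transferred, then read after 2 h incubation at ambient room temperature.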
Active calls of the source: *; ? = inconclusive; [ ] = dose if it differs, or a comment. On the % scale 0 is the no-effect control and ±100 the full control effect; potency means the concentration at half of the fitted maximal effect.

SMILES	VDR inhibitor
COc1ccc(CN(C)C(=O)c2ccc(NC(=O)CC3SC(N4CCCC4)=NC3=O)cc2)c(OC)c1OC (stereo not given)	-10.6%
COc1cccc(CNC(=O)Cc2csc(Nc3nc(=S)[nH]c4ccccc34)n2)c1	-10.7%
CC(C)(C)c1cccc(/C=N/O)c1O	-8.6%
O=C(CN1C(=O)c2cccc3cccc(c23)C1=O)NCCN1CCOCC1	-0.1%
O=C(O)CC(c1cccc(O)c1)N1Cc2ccccc2C1=O (stereo not given)	-9.5%
CCNC(=O)COC(=O)/C=C/c1c(C)nn(Cc2cccc(OC)c2)c1Cl	-15.3%
Cc1cc(=O)n2nc(N3CCC(C(=O)Nc4ccc(C(C)C)cc4)CC3)sc2n1	3.2%
Cc1nc2ccccn2c1C(=O)NNC(=S)Nc1ccc(Cl)cc1	-7.1%
Cc1oc(C)c2c(=O)ccc3c(c12)OC(N)=C(C#N)C3c1ccc(F)cc1 (stereo not given)	-16.7%
CCOc1ccccc1CNCCSc1nnnn1C	0.5%
CCCCCCCCCCCCC(=O)N1CCCC[C@H]1CNC(=O)[C@@H](N)CCCCN	28.8%
COc1cccc(N=Cc2ccc(O)cc2O)c1	2.0%
CC(=O)c1ccccc1NS(=O)(=O)c1ccccc1Cl	?
O=C(NC(=S)Nc1ccccc1)c1cc(-c2ccccc2)nc2ccccc12	-5.4%
Cc1ccccc1NC(=O)c1c(C)nn(-c2ccccc2)c1Cl	-7.3%
Cc1ccnc(NS(=O)(=O)c2ccc(NC(=O)c3ccc([N+](=O)[O-])s3)cc2)n1	-0.8%
COc1ccc2sc3c(=O)[nH]c4ccccc4c3c2c1	5.7%
O=C1c2ccccc2C(=O)C1(CO)c1ccccc1	-14.7%
NC(=O)C1CCN(S(=O)(=O)c2cccc(C(=O)O)c2)CC1	10.1%
Cc1cc(OCC(O)CN2CCCC2)ccc1C(C)C (stereo not given)	?
COc1ccccc1-n1c(C)nc2cc(C(=O)NCC3CCCO3)ccc21 (stereo not given)	-0.1%
CS(=O)(=O)N1CCN=C1SCc1cccc(F)c1	1.6%
CN(C)C(=O)CCc1ccc2c3c([nH]c2c1)[C@]1(CCC2CCCC2)[C@@H](C(=O)N2CCOCC2)C[C@H](CC(=O)NCCc2ccccn2)C(=O)N1CC3	7.7%
Cc1ccc(-n2nc3c(c2NC(=O)CC(C)C)CS(=O)C3)cc1 (stereo not given)	2.7%
CCCC[C@@H]1C[C@H]1[C@@H](NC(=O)c1ccco1)c1ccccc1C(F)(F)F	-0.4%
COc1ccccc1CNC(=O)C1CCN(S(=O)(=O)c2ccc3c(c2)OCCCO3)CC1	-12.9%
COC(=O)CC1NCCNC1=O (stereo not given)	1.8%
CC(C)c1nnc(NC(=O)c2nc(S(=O)(=O)Cc3ccccc3F)ncc2Cl)s1	20µM*
Cc1ccc(/C(O)=C2/C(=O)C(=O)N(c3ccccn3)C2c2ccc([N+](=O)[O-])cc2)cc1 (stereo not given)	0.1%
CCc1c(C)c2ccc(O)c(CN3CCN(c4cc(Cl)ccc4C)CC3)c2oc1=O	5.6%
COc1ccccc1CCC(=O)OCC(=O)Nc1cc(S(=O)(=O)N2CCOCC2)ccc1C	1.0%
COc1ccc(C(=O)N2CCNC(=O)C2CC(=O)Nc2cc(Cl)ccc2OC)cc1 (stereo not given)	-2.9%
O=C(NC1CCS(=O)(=O)C1)c1cn(-c2ccccc2)nc1-c1ccccc1 (stereo not given)	-13.8%
O=[N+]([O-])c1ccc(C(O)CN2CCOCC2)cc1 (stereo not given)	-5.1%
CCc1cc2c(Nc3ccccc3O)nc(C)nc2s1	-14.0%
N#CNC(N)=Nc1cccc(Cl)c1	4.9%
COc1ccc(CC(=O)Nc2ccc3nc(Nc4cccc(Cl)c4)cc(C)c3c2)cc1OC	5.2%
CC(=O)N[C@H](C(=O)O)C(C)(C)SN=O	-3.3%
COc1ccc(CCNC(=O)COC(=O)CSc2ccc([N+](=O)[O-])cc2)cc1OC	9.1%
Cc1[nH]c(=O)[nH]c(=O)c1NC(=O)c1ccc(OC(C)C)cc1	-21.2%
Clc1cccc(-n2ncc3c(Nc4ccc5c(c4)OCCO5)ncnc32)c1	20.5%
COc1ccc(Br)cc1CN(C)CC(=O)NCc1ccc(F)cc1	-13.3%
COc1ccc(-c2noc(CN3CCOCC3)n2)cc1OC	-8.7%
CC(=O)Oc1c(S(=O)(=O)c2ccc(C)cc2)c(C)nn1C(C)(C)C	-13.1%
COc1ccc(/C=C/c2ccc3cccc(O)c3n2)cc1Br	0.2%
COc1ccc(C2C=C(c3ccc(Cl)cc3)Nc3nc(-c4ccc(Cl)cc4)nn32)cc1 (stereo not given)	-7.8%
Cc1ccc(S(=O)(=O)N2C[C@@H]3[C@H]4CC[C@H](C4)[C@@H]3[C@@H](C)[C@@H]2c2cn(Cc3ccccc3)c3ncccc23)cc1	-6.4%
CCOC(=O)C1=C(COC(=O)C(CC)c2ccccc2)NC(=O)NC1C (stereo not given)	6.4%
Cn1c(=O)c(C(=O)NC2CCCCCCC2)c(O)c2ccccc21	13.9%
COc1c(NC=O)c2c(c([N+](=O)[O-])c1OC)C(=O)OC2	5.2%
O=C(Nc1ccccc1)c1cc(Cl)nc2ccccc12	-13.0%
CCCc1c(C(=O)N/N=C(\C)CCc2ccc(OC)cc2)nnn1-c1nonc1N	8.7%
CCc1nc2cccnc2n1-c1ccc(CC(=O)Nc2cccc(C)c2C)cc1	-9.7%
Cc1cccc(C)c1NC(=O)c1cnn(-c2ccccc2)c1C	1.8%
C=C(C)Cn1c(SCC(=O)N/N=C/c2c(O)ccc3ccccc23)nc2ccccc2c1=O	-19.2%
CC1=C(C(=O)OC2CCCCC2)C(c2cccnc2)n2nnnc2N1 (stereo not given)	-8.2%
COc1ccc(NC(=O)Cn2nnnc2-c2ccccc2F)c(C)c1	9.3%
CN1CCN(S(=O)(=O)c2ccc(Br)c3nsnc23)CC1	2.0%
CCOC(=O)c1c(/N=C/C2=C(O)CC(C)(C)CC2=O)sc2c1CCCC2	-8.3%
CSc1nn(CC(=O)Nc2cc(C)ccc2C)c(N)c1S(=O)(=O)c1ccccc1	-3.3%

(more compounds)
SMILES	VDR inhibitor
CCN(CC)N=Nc1ccc(C(=O)O)cc1	40.5%[activator]
Cc1ccc(Cl)cc1N1CCN(C(=O)c2cc3ccc4cccnc4c3[nH]2)CC1	25.1%
O=C(Cc1c(F)cccc1Cl)Nc1cc(S(=O)(=O)N2CCCCC2)ccc1N1CCOCC1	22.2%
CCC(C)NC(=O)CCS(=O)(=O)c1ccc2c(c1)n(C)c(=O)c(=O)n2C (stereo not given)	-14.2%
N=C1N(c2ccccc2)C(=S)C(=Nc2ccccc2)N1c1ccccc1	8.91µM*
COc1ccc(-c2cc(C)no2)cc1S(=O)(=O)N1CCCCC1	-8.8%
C=C(C)CNC(=O)c1ccc2nc(Cc3ccc(OC)cc3)oc2c1	-11.5%
O=S(=O)(c1cccc(C(F)(F)F)c1)N1CCC(CO)(CCCc2ccccc2)CC1	24.1%
CC(=O)C1=C(NC(=O)c2ccccc2F)C[C@@H]2[C@H]1C2(C)C	3.1%
Cc1ccccc1NC(=S)Nc1ccc(Br)cc1	?
CC1CCCC(NC(=O)COC(=O)CCC(=O)c2cccs2)C1C (stereo not given)	-18.2%
Cc1n[nH]c(C)c1N=Nc1ccc(Br)cc1	5.4%
COc1ccc(-n2nc3c(c2NC(=O)Cc2cccc(C)c2)CS(=O)C3)cc1 (stereo not given)	9.6%
CCOc1ccc(C(C)=O)cc1CSc1nnc(-c2ccncc2)n1CCOC	17.1%
COc1cc(C=C2C(=O)c3ccccc3C2=O)cc(OC)c1	?
CN(C)c1nnnn1-c1ccc(Cl)cc1	8.9%
CN(C)c1ccc(CSc2ccccc2)cc1	-4.4%
Cc1cc(Cl)ccc1NS(=O)(=O)c1c(C)[nH]c(=O)[nH]c1=O	6.2%
CCOc1ccc(S(=O)(=O)N(C)CC(=O)NCc2ccccn2)cc1Cl	-8.8%
CC(O)[C@H]1CN=C(N)N1CCc1cc(C(F)(F)F)cc(C(F)(F)F)c1 (stereo not given in full)	11.3%
COc1ccc(N2C(=O)CC(n3cnc4ccccc43)C2=O)cc1 (stereo not given)	9.6%
CC(=O)c1cccc(S(=O)(=O)Nc2ccc(N3CCOCC3)cc2)c1	8.6%
O=C(COC(=O)c1ccc(NC(=O)C2CC=CCC2C(=O)O)cc1)c1ccccc1 (stereo not given)	-7.2%
CCCNC(=O)Cc1ncn[nH]1	0.8%
COc1ccc(N/N=C(/Oc2ccc([N+](=O)[O-])cc2)C(C)=O)cc1	-3.3%
Cc1cc(C)c(C#N)c(N2CCC(C(N)=O)CC2)n1	13.7%
O=C(Nc1ccc2c(c1)CCC2)c1cccc(S(=O)(=O)N2CCN(c3ccc(F)cc3)CC2)c1	-7.6%
C=CCS(=O)(=O)N1CCCC(N(C)CCc2ccc(OC)c(OC)c2)C1 (stereo not given)	-3.7%
Cc1ccc(NC(=O)C2CCCN2C(=O)OC(C)(C)C)cc1C (stereo not given)	19.8%
COC(=O)c1cn(CCOc2ccccc2OC)c2ccccc12	9.5%
N#Cc1cc(-c2ccccc2)nc(Oc2ccc(Cl)cc2)n1	-19.1%
Cc1ccc(Oc2c(C=O)c3ccccc3n2C)cc1	1.2%
Cc1ccc(S(=O)(=O)N[C@H](C(=O)OCC(=O)N2N=C(c3ccc(Cl)cc3)CC2c2ccco2)C(C)C)cc1 (stereo not given in full)	-8.0%
O=S1(=O)N=C(Nc2ccc(O)cc2)c2ccccc21	15.3%
Cc1ccc(-c2ccc(S(=O)(=O)N3CC(C)OC(C)C3)cc2)cc1 (stereo not given)	3.3%
C=CC(=O)Nc1cccc(Oc2ccnc(Nc3ccc(N4CCN(C)CC4)cc3)n2)c1	9.1%
CCN(CC)S(=O)(=O)c1cc(NC(=O)C2CC(=O)N(Cc3ccccc3)C2)ccc1Cl (stereo not given)	-17.6%
CCN=C1SC(C(=O)Nc2cccc(C(=O)O)c2)CC(=O)N1CC (stereo not given)	1.8%
Cc1cc(N2CCCC2)ccc1NC(=O)CN1C(=O)NC2(CCCCC2)C1=O	1.4%
O=C(Nc1cccc(Cl)c1)N1CCC(CN2CCOCC2)CC1	7.5%

A different layout for 3 compounds above.
COC(=O)CC1NCCNC1=O (stereo not given)
  VDR inhibitor: 1.8%

Cc1cc(OCC(O)CN2CCCC2)ccc1C(C)C (stereo not given)
  VDR inhibitor: ?

Cc1cc(N2CCCC2)ccc1NC(=O)CN1C(=O)NC2(CCCCC2)C1=O
  VDR inhibitor: 1.4%

Next section
SMILES	VDR inhibitor
COc1ccccc1NS(=O)(=O)NC(=O)c1cn(C)c2ccccc12	10.4%
COc1ccc(CNC(=O)CN2CCN(c3ccccc3)CC2)cc1	2.0%
Cn1c(=O)[nH]c(=O)c2c1nc(NCCO)n2CC(O)COc1ccccc1 (stereo not given)	2.4%
CC(=O)N1CCCc2cc(S(=O)(=O)N3CCN(c4ccccn4)CC3)ccc21	6.1%
Cc1ccc(-c2nnc(N3CCN(C(=O)Cn4c(=O)n(C)c5ccccc54)CC3)c3ccccc23)cc1	15.9%
O=C(COc1ccc(F)cc1)Nc1ccccc1OCc1cc(=O)n2ccccc2n1	-3.4%
CC(C)c1ccc2nc(N)sc2c1	-7.0%
O=C1NCC(CN(c2ccccc2)c2ccccc2)O1 (stereo not given)	4.8%
NC(N)=NCCC[C@H](NC(=O)[C@@H](N)Cc1ccc(O)cc1)C(=O)O	9.2%
CCOc1ccc(CN(C)CC(=O)Nc2cc(OC)c([N+](=O)[O-])cc2C)cc1	-5.6%
CC(c1ccccc1)C(CC(=O)O)C(=O)Nc1ccc(Cl)c(Cl)c1 (stereo not given)	1.3%
CC1([N+](=O)[O-])COC(C=Cc2ccccc2)OC1 (stereo not given)	-16.8%
COc1ccc(C(=O)CSc2nnc(Cn3nnc4ccccc43)n2C)cc1	-7.2%
Cc1cccc(-n2ncc3c2CCCC3NC(=O)CC(F)(F)F)c1C (stereo not given)	17.3%
COCCNC(=O)C(c1ccc(O)cc1)N(Cc1ccccc1)C(=O)CCC(=O)Nc1nccs1 (stereo not given)	9.9%
CC1CC(C)CN(C(=O)C2CCC(CNS(=O)(=O)c3ccccc3)CC2)C1 (stereo not given)	-9.5%
Cc1cccc(NC(=O)CN2CCN(CC(=O)NCC3(N4CCCCC4)CCCCC3)CC2)c1C	3.1%
C[C@@H]1CCC(=O)N(CC[C@H](Sc2ccc(Br)cc2)c2ccccc2)CC1	-29.2%
NC1=NS(=O)(=O)NC1c1ccc(Br)cc1 (stereo not given)	-2.9%
O=C(Cn1cnc2c(nnn2Cc2ccc(F)cc2)c1=O)N1CCN(c2ccccc2)CC1	7.2%
CCOC(=O)c1ccccc1NC(=O)Cn1cnc2c1c(=O)n(C)c(=O)n2C	-5.0%
O=C1CSC(c2ccccc2)N1c1ccccc1F (stereo not given)	-0.5%
CCCCn1cnc2sc3c(c2c1=N)CCCC3	1.7%
CSc1nnc2c(n1)[nH]c1c(C)cccc12	10.4%
COC(=O)c1ccc(NC2CC(=O)N(c3ccccc3C)C2=O)cc1 (stereo not given)	-4.0%
Cc1ccc(Cc2cnc(NC(=O)C3Cc4ccc(C)cc4C(=O)O3)s2)cc1 (stereo not given)	-6.9%
CC(=O)Nc1cc(-c2ccccc2)nn1Cc1ccc(Cl)cc1	0.9%
CC(C)c1ccc(OCc2nnc(SCC(=O)N3CCCCC3)o2)cc1	8.6%

Bioassay records (PubChem)

These rows are one share of the data, so the mix of outcomes need not match the whole.
